Mtb H37Rv: Mycobacterium tuberculosis H37Rv growth inhibition, putative kinase inhibitor library, confirmatory dose response (AID 2842); 5.2% of 24,000 active; one-dose inhibition, % at 10 µg/mL; IC90 in µg/mL for titrated hits; M. tuberculosis H37Rv growth inhibition; higher % means a stronger effect; some inactives read as strong as hits;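 active = confirmed in a dose series; about a fifth of its hits are not listed in these tables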;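 also: bacteria incubated one week before Alamar blue readout; 0% = bacteria only wells and 100% = bacteria with high antibiotic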
The depositor's hits bear a star.

SMILES | Mtb H37Rv
CCCCC(=O)NCCc1cc2ccc(C)cc2[nH]c1=O | -2%
COc1cc(OC)cc(C(=O)Nc2nnc(-c3cccc([N+](=O)[O-])c3)s2)c1 | 2%
O=c1c(S(=O)(=O)c2ccc(F)cc2)cn(Cc2ccccc2)c2cc3c(cc12)OCO3 | 4%
COc1cc(/C=C\C(=O)NCCc2cc3cc(C)c(C)cc3[nH]c2=O)cc(OC)c1OC | 8%
O=C(Cn1cc(C(=O)c2ccccc2)c(=O)c2cc3c(cc21)OCCO3)Nc1ccc2c(c1)OCCO2 | 2%
C#CCn1cnc2c(cnn2-c2cccc(Cl)c2)c1=O | -9%
Cc1ccc(N/C=C(\C#N)c2nc(-c3ccc([N+](=O)[O-])cc3)cs2)cc1Cl | 0%
Cc1ccc(-c2csc3ncn(CC(N)=O)c(=O)c23)c(C)c1 | 11%
COc1ccc(NC(=O)Cn2nnc3sc4c(c3c2=O)CCC(C)C4)c([N+](=O)[O-])c1 (stereo unspecified) | -9%
Cn1c(NC(=O)C2CCCC2)cc(=O)n(C)c1=O | -4%
CCOc1cccc2cc(C(N)=O)c(=Nc3ccc(-c4ccccc4)cc3)oc12 | 65%
Cn1c(=O)[nH]c(=O)c2c1nc(N1CCC(Cc3ccccc3)CC1)n2CCSc1nc2ccccc2o1 | 20%
Cc1[nH]c2ccccc2c1C(=O)C(=O)NCCc1cc2c(C)ccc(C)c2[nH]c1=O | 20%
O=C(CSc1ccc2nnc(-c3cccnc3)n2n1)N1CCOCC1 | 22%
COc1cccc2c(=O)cc(C)n(CC(=O)Nc3ccccc3)c12 | -3%
O=C(c1ccc(Nc2nc(-c3ccccc3)c3cc(Cl)ccc3n2)cc1)N1CCCCC1 | 7%
COc1cc(OC)cc(C(=O)Nc2c(C(=O)Nc3ccc(OC)cc3OC)oc3ccccc23)c1 | -3%
Cc1ccc(Cc2nnc(SCC(=O)Nc3ccc(F)c(Cl)c3)n(N)c2=O)cc1 | 3%
COC(=O)c1cc(C(=O)OC)cc(-n2c(C)cc(C(=O)CN3CC(C)OC(C)C3)c2C)c1 (stereo unspecified) | -29%
CS(=O)(=O)c1ccc2nc(Nc3nc4ccc(Cl)cc4s3)sc2c1 | 9.7µg/mL*

Some of these compounds in order of number of heavy atoms, ascending:
SMILES | Mtb H37Rv
COc1cccc2c(=O)cc(C)n(CC(=O)Nc3ccccc3)c12 | -3%
O=C(CSc1ccc2nnc(-c3cccnc3)n2n1)N1CCOCC1 | 22%
Cn1c(=O)[nH]c(=O)c2c1nc(N1CCC(Cc3ccccc3)CC1)n2CCSc1nc2ccccc2o1 | 20%

(further entries)
SMILES | Mtb H37Rv
O=C(CSc1nc2c(c(=O)n1-c1ccc(F)cc1)SCC2)NCc1ccccc1 | 1%
Cn1c(=O)c2c(SCC(=O)NC3CCCCC3)nc(-c3cccs3)nc2n(C)c1=O | 3%
Cc1nc2sc(C(c3ccc(F)cc3)N3CCOCC3)c(O)n2n1 (stereo unspecified) | -4%
COc1cc(/C=C2/SC(=Nc3cc(Cl)cc(Cl)c3)NC2=O)ccc1O | 48%
COc1ccc(/C=C/C(=O)O)cc1S(=O)(=O)NC1CCS(=O)(=O)C1 (stereo unspecified) | 0%
COc1cccc(C(=O)NCC(=O)NNc2ncnc(N)c2[N+](=O)[O-])c1 | 3%
Nc1ncnc(NCc2cccc(Cl)c2)c1[N+](=O)[O-] | 10%
O=C(O)c1ccccc1SC1CC(=O)N(c2ccc(I)cc2)C1=O (stereo unspecified) | -18%
Cc1ccc(CSc2nc3c([nH]2)c(=O)n(C)c(=O)n3C)cc1 | 7%
Cn1ncc2c(NNC(=O)c3ccc(Cl)cc3Cl)ncnc21 | -6%
O=C(Nc1sc2c(c1-c1nc3ccccc3s1)CCCC2)c1cc(Cl)cc(Cl)c1 | -4%
CC(C)C(=O)N1CCN(c2ccc(N3CCOCC3)nn2)CC1 | -9%
COC(=O)c1c(NC(=O)CCc2ccccc2)sc2c1CC(C)(C)NC2(C)C | 2%
Cn1c(=O)c2c(SCC(=O)Nc3ccc4c(c3)OCCO4)nc(-c3ccco3)nc2n(C)c1=O | -1%
Cc1nnc(NC(=O)C(C)Sc2nncn2C)s1 (stereo unspecified) | -2%
C=CCn1ccc2c(OCC(=O)Nc3ccc(NC(C)=O)cc3)cccc2c1=O | -7%
CSc1cccc2sc(Nc3cccc(C)c3C)nc12 | 12%
Cc1ccc(-n2ncc3c(NCc4ccccn4)ncnc32)cc1Cl | 8%
Cc1ccc(C(=O)Nc2sc3c(c2C(N)=O)CC(C)CC3)cc1 (stereo unspecified) | 3%
COCC(=O)Nc1c(C(=O)Nc2ccc(F)c(F)c2)oc2ccccc12 | -5%
Cc1ccc(-n2ncc3c(NNC(=O)Cc4cccc5ccccc45)ncnc32)cc1Cl | 11%
COc1ccc(CC(=O)N2CCN=C2SCc2ccc(C)cc2)cc1OC | -8%
Cc1cc(SCc2cccc([N+](=O)[O-])c2)nc(=O)[nH]1 | -4%
CCOC(=O)c1nn(-c2ccc(F)cc2)c(=O)c2c(NC(=O)c3ccc4c(c3)OCO4)scc12 | 0%
CC(C)CCn1c(N2CCc3ccccc3C2)nc2c1c(=O)[nH]c(=O)n2C | -6%
Oc1c(C(c2ccc(F)cc2)N2CCOCC2)sc2ncnn12 (stereo unspecified) | -2%
OCCN1CCN(C(c2cccc(Br)c2)c2sc3nc(-c4ccco4)nn3c2O)CC1 (stereo unspecified) | -23%
O=C(Nc1c(-c2ccccc2)nc2ccccn12)c1cccc([N+](=O)[O-])c1 | -13%
CCOC(=O)c1nn(-c2ccc(F)cc2)c(=O)c2c(NC(=O)c3ccc(S(=O)(=O)N4CCCCC4)cc3)scc12 | -7%
COC(=O)Cn1c(=O)c2c(nc3n(-c4ccccc4F)c(C)c(C)n23)n(C)c1=O | 2%
Cc1c(C(N)=O)sc2ncn(CC(=O)N(C)C3CCCCC3)c(=O)c12 | -12%
NC(=O)c1c(NC(=O)c2cc3ccccc3oc2=O)sc2c1CCCCC2 | -1%
O=C(CSc1nc2ccc([N+](=O)[O-])cc2[nH]1)c1ccc(Cl)cc1 | -1%
O=S(=O)(/N=C/c1c(O)ccc2ccccc12)c1cccs1 | 4%
Cc1cc2c(=O)n(Cc3ccco3)c(SCC(=O)Nc3nccs3)nc2s1 | 3%
Cc1ccc(C)c(-c2nnc(NC(=O)CCc3ccccc3)o2)c1 | 11µg/mL*
CCOc1ccc2c(c1)c(=O)c(S(=O)(=O)c1ccc(OC)cc1)cn2Cc1ccccc1F | 25%
Cc1ccc(-c2nnc(NC(=O)CSc3nncn3C)s2)cc1 | 2%
CC1C(=O)N2CCCc3cc(NC(=O)c4cccc(C(F)(F)F)c4)cc1c32 (stereo unspecified) | 27%
CCN(c1ccccc1)S(=O)(=O)c1cc(C)c2[nH]c(=O)cc(C)c2c1 | 7%
O=C(Nc1c2c(nn1-c1ccc([N+](=O)[O-])cc1)CSC2)c1ccco1 | -5%
Cc1ccc(C)c2[nH]c(=O)c(CCNC(=O)CC(C)(C)C)cc12 | 25%
Cc1cc(NC(=O)COc2ccc(Cl)cc2)nc2c1c(=O)oc1ccccc12 | 1%
COC(=O)c1c(NC(=O)c2nc3ccccc3s2)sc2c1CCN(C(C)=O)C2 | -2%
O=C(NNc1ncnc2c1cnn2-c1cccc(Cl)c1)c1ccccc1Cl | 9%
COc1ccc(OC)c2[nH]c(=O)c(CCNC(=O)Cc3cccc4ccccc34)cc12 | 5%
Cc1c(C)n2c(SCC(=O)NCc3ccc4c(c3)OCO4)nnc2[nH]c1=O | -8%
Nc1ncnc(NCCO)c1[N+](=O)[O-] | 1%
COc1ccc(NC(=O)c2oc3ccccc3c2NC(=O)C(C)Cl)cc1OC (stereo unspecified) | 1%
COc1ccc(CCNC(=O)CSc2ncnc3ccccc23)cc1OC | -9%

Other records follow.
SMILES | Mtb H37Rv
CCCCn1c(N=Nc2c(O)n(C)c(=O)n(C)c2=O)nc2c1c(=O)[nH]c(=O)n2C | 2%
Cc1csc(Sc2nc3c(c(=O)[nH]c(=O)n3C)n2Cc2ccccc2Cl)n1 | 1%
CCc1nnsc1C(=O)Nc1c(C(=O)Nc2ccc(C)cc2)oc2ccccc12 | 10%
COc1cccc(NC(=O)CSc2ccc3nnc(-c4ccc(F)cc4)n3n2)c1 | 1%
O=C(NCCO)C(=O)NCCC1CCCCN1S(=O)(=O)c1ccc(F)cc1 (stereo unspecified) | -6%
O=C(CSc1nnc2[nH]c(=O)ccn12)Nc1cccc([N+](=O)[O-])c1 | -4%
CCOC(=O)N1CCN(C(c2cccc(OC)c2)c2sc3ncnn3c2O)CC1 (stereo unspecified) | 0%
CC(=O)c1ccc(NC(=O)C2Cc3ccccc3CN2S(=O)(=O)c2ccc(F)cc2)cc1 (stereo unspecified) | -13%
O=C(O)CCC(=O)N1N=C(c2ccc(Br)cc2)CC1c1nc2ccccc2[nH]1 (stereo unspecified) | -7%
COc1ccc2sc(Nc3cc(Cl)cc(Cl)c3)nc2c1 | 22%

Filtered by structure: those above containing two or more sulfur atoms
SMILES | Mtb H37Rv
CS(=O)(=O)c1ccc2nc(Nc3nc4ccc(Cl)cc4s3)sc2c1 | 9.7µg/mL*
O=C(CSc1nc2c(c(=O)n1-c1ccc(F)cc1)SCC2)NCc1ccccc1 | 1%
Cn1c(=O)c2c(SCC(=O)NC3CCCCC3)nc(-c3cccs3)nc2n(C)c1=O | 3%
COc1ccc(/C=C/C(=O)O)cc1S(=O)(=O)NC1CCS(=O)(=O)C1 (stereo unspecified) | 0%
O=C(Nc1sc2c(c1-c1nc3ccccc3s1)CCCC2)c1cc(Cl)cc(Cl)c1 | -4%
Cc1nnc(NC(=O)C(C)Sc2nncn2C)s1 (stereo unspecified) | -2%
CSc1cccc2sc(Nc3cccc(C)c3C)nc12 | 12%
CCOC(=O)c1nn(-c2ccc(F)cc2)c(=O)c2c(NC(=O)c3ccc(S(=O)(=O)N4CCCCC4)cc3)scc12 | -7%
O=S(=O)(/N=C/c1c(O)ccc2ccccc12)c1cccs1 | 4%
Cc1cc2c(=O)n(Cc3ccco3)c(SCC(=O)Nc3nccs3)nc2s1 | 3%
Cc1ccc(-c2nnc(NC(=O)CSc3nncn3C)s2)cc1 | 2%
COC(=O)c1c(NC(=O)c2nc3ccccc3s2)sc2c1CCN(C(C)=O)C2 | -2%
Cc1csc(Sc2nc3c(c(=O)[nH]c(=O)n3C)n2Cc2ccccc2Cl)n1 | 1%

Continued.
SMILES | Mtb H37Rv
CCOC(=O)CSC(C)C(=O)Nc1nnc(C)s1 (stereo unspecified) | -4%
COc1ccc(C(=O)Nc2nc(-c3cccc([N+](=O)[O-])c3)cs2)cc1OC | 0%
Cc1ccc(CNC(=O)c2cnc3sccn3c2=O)cc1 | -8%
O=C(CSc1ccc2nnc(-c3cccc(F)c3)n2n1)Nc1cccc(F)c1 | -9%
Cc1ccc(-c2nnc3ccc(SCC(=O)OCc4ccccc4)nn23)cc1 | -4%
CC1C(=O)N2CCCc3cc(NC(=O)c4cc(Cl)ccc4Cl)cc1c32 (stereo unspecified) | 7%
O=c1[nH]c2ccccc2cc1/C=N/Nc1nc(-c2ccccc2)c2cc(Cl)ccc2n1 | 99%
Cc1ccc(NC(=O)Cn2cc(S(=O)(=O)c3ccc(C)c(C)c3)c(=O)c3cc(F)ccc32)c(C)c1 | 1%
Cc1ccc(Nc2nc(N3CCCC3)nc3nccnc23)cc1C | 3.2µg/mL*
CCOc1ccc(C(=O)Nc2c(N)nc(SCc3cccnc3)[nH]c2=O)cc1 | 6%
COc1ccc(-c2ccc(=O)n(CCNS(=O)(=O)c3cccc(Cl)c3)n2)cc1 | -2%
COc1ccc(CC(=O)Nc2nnc(-c3ccc(F)cc3)s2)cc1 | 8%
Clc1ccc(Cc2cnc(Nc3ccccc3)s2)cc1Cl | 65%
CCOCCn1c(SC(C)C(C)=O)nc2c1c(=O)[nH]c(=O)n2C (stereo unspecified) | -7%
Clc1ccc(Cl)c2sc(N3CCN(c4nc5ccccc5s4)CC3)nc12 | -6%
COc1ccc(CCNc2nnc(C)c(=O)[nH]2)cc1OC | -8%
O=C(Nc1nnc(-c2ccc(Br)cc2)s1)C12CC3CC(CC(C3)C1)C2 | 0%
CCOc1ccc(C(=O)Nc2c(N)nc(SCC(=O)Nc3ccccc3)[nH]c2=O)cc1 | 2%
O=C(Cc1cc(=O)[nH]c(=O)[nH]1)NCCC1=CCCCC1 | 6%
CCOC(=O)c1sc(NC(=O)CSc2nnc3[nH]c(=O)cc(C)n23)c(C(=O)OCC)c1C | -11%
Cc1cccc(NC(=O)CSC2=NS(=O)(=O)c3cc(F)ccc3N2)c1C | -20%
N#Cc1c2c(c(NCCc3ccccc3)n3c1nc1ccccc13)CCC2 | -5%
COCCn1c(N/N=C\c2cc(Br)c(O)c(OC)c2)nc2c1c(=O)[nH]c(=O)n2C | -14%
Cn1c(SCC(=O)N/N=C/c2ccc(Cl)cc2)nc2ccccc21 | 21%
CCOc1ccccc1NC(=O)CSc1nc(N)c(NC(=O)c2cccs2)c(=O)[nH]1 | 0%
O=C(Cc1nc2ccccc2[nH]c1=O)Nc1cccc(C(F)(F)F)c1 | -5%
NC(=O)c1n[nH]n2c1nc(=O)c1ccccc12 | -12%
Cc1cc2c(=O)n(Cc3ccco3)c(SCC(=O)Nc3ccc(C)c(C)c3)nc2s1 | -4%
NC(=O)c1cc2ccccc2o/c1=N/NC(=S)Nc1ccccc1 | 11%
CC(=O)Nc1nnc(-c2cccs2)o1 | -11%
COc1ccc(-n2c(=O)cc(N3CCN(C)CC3)[nH]c2=O)cc1 | -1%
O=C(Nc1ccc(Br)cc1)c1cccc(-n2cnnn2)c1 | 12%
Cc1ccc(C)c2[nH]c(=O)c(CCNC(=S)Nc3cccc(Cl)c3)cc12 | 8%
C=CCn1c(=O)c2c(nc(-n3nc(C)cc3C)n2C)n(C)c1=O | -8%
O=C(NCCn1cc(SCC(=O)N2CCOCC2)c2ccccc21)c1cccs1 | -1%
COc1ccc(C(=O)CSc2ncnc3c2nnn3-c2ccc(OC)cc2)cc1 | -4%
O=C(O)CN1C(=O)C2C3CC(C2C1=O)C1C(c2ccc(F)cc2)c2sc(=O)[nH]c2SC31 (stereo unspecified) | -7%
COc1ccc(Nc2nc(Nc3ccc(C)cc3C)c3nccnc3n2)cc1Cl | 22%

Source: PubChem

An excerpt. The share of hits here may be higher or lower than overall.
